# miR-21 reporter = qHTS Assay for Modulators of miRNAs and/orActivators of miR-21 | Potency, µM (doses to about 38.3 µM), without a hit: at the highest dose reporter change, positive = more light | HeLa miR-21 FLuc reporter, luciferase, 48 h | AID 2288, 2010 | 340,000 tested, under 10 active; active = well fitted rising curve with a large enough effect; inconclusive = small, poorly fitted or top-dose-only effect; inactive = no such curve, though single readings can be large or run the other way;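 also: % of control where 0% means no effect; miR-21 action dims this reporter so a rising signal means less miR-21 action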
#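 HeLa cells stably expressing CMV-driven firefly luciferase with a downstream miR-21 binding sequence, endogenously expressing miR-21, were treated with titrations (up to about 40uM final) for 48 hours at 37 degree Celsius. Luciferase luminescence was read after lysis.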
# Rango complex inh = qHTS Assay for Inhibitors of Rango (Ran-regulated importin-beta cargo) - Importin beta complex formation | Importin subunit beta-1 (Homo sapiens), Q14974 | Rango CFP/YFP FRET sensor + importin beta, 45 min | 0.031% of 340,000 active | Potency, µM (titrated, usually from 92.2 µM), without a hit: at the top dose inhibition of complex formation; active = rising FRET ratio curve, often small or poorly fitted; inconclusive = mostly compound fluorescence or quenching in the first reads; inactive = flat curves in all reads;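 also: potency is read from the fitted curve at half-maximal effect; 0% = DMSO wells and 100% = buffer wells lacking importin beta; nearly all actives have a fitted effect of over 15% in size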
# Target sequence (Q14974 whole entry, looked up): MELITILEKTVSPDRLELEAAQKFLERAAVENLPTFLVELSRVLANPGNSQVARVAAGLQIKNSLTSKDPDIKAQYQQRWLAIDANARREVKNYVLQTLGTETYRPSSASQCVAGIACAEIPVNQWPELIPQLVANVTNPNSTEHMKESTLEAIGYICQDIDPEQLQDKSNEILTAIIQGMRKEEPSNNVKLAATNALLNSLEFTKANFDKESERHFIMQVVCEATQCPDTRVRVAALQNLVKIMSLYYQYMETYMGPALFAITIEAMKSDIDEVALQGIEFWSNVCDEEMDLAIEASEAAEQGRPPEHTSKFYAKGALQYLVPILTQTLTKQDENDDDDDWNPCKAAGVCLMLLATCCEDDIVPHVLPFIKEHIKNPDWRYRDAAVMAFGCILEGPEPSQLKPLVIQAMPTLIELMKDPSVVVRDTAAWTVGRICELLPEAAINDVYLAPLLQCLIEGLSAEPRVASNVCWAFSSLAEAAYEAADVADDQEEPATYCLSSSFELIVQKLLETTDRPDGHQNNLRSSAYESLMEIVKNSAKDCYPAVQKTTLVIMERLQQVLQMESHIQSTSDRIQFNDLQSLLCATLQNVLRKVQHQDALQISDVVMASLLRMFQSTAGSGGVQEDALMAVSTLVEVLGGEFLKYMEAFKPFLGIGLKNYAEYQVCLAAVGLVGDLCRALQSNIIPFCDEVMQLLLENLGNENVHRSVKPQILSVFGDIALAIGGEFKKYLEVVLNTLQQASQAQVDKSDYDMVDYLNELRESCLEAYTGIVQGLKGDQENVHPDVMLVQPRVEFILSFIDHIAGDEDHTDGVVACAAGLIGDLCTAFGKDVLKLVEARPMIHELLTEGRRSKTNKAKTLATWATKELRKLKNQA
#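 FRET biosensor Rango (snurportin 1 IBB between N-terminal EYFP and C-terminal Cerulean), 50 nM in PBS/1 mM DTT/0.02% Tween-20/0.1% BSA, preincubated 5 min RT with compound; 0.125 microM importin beta added, 45 min RT, CFP/YFP FRET ratio read.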
# Rango release inh = qHTS Assay for Inhibitors of RanGTP induced Rango (Ran-regulated importin-beta cargo) - Importin beta complex dissociation | Snurportin-1 (Homo sapiens) + GTP-binding nuclear protein Ran (Homo sapiens) + Importin … | Biochemical FRET Rango-importin beta, RanGTP-induced dissociation | Potency, µM (titrated, usually from 46.1 µM), for inactives: top-dose activity change, negative = inhibition | 0.071% of 340,000 active | AID 540253, 2011; active means falling FRET ratio curve, often poorly fitted, with flat reads before Ran was added; inconclusive means other falling curves, or compound fluorescence or quenching; inactive means flat or rising ratio curve;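 also: potency is read from the fitted curve at half-maximal effect; % of control where 0% means no effect; nearly all actives have a fitted effect of over 45% in size; -100% = wells without RanGTP and RCC1; the record marks most hits as doubtful in a second field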
#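 Two FRET readings bracket the reaction: one 5 min after compound meets Rango–importin beta, another 45 min after RanGTP-RCC1 (0.6 uM Ran, 0.2 uM RCC1, 2 mM GTP) is added. Only the second defines inhibition.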
# GLA inh pH 4.5 = qHTS Assay for Inhibitors of Human alpha-Galactosidase at pH 4.5 | activity change, negative = inhibition, % at 105 µM | Alpha-galactosidase A (Homo sapiens), P06280 | AID 1467, 2008 | purified enzyme, 4-MU-alpha-Gal fluorescence, pH 4.5 | 230,000 tested, under 10 active; inconclusive = small, poorly fitted or top-dose-only inhibition, or a rising curve; inactive = flat fitted curve, though single readings scatter; no compound was filed as active;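 also: 0% = full activity with enzyme and -100% = basal without enzyme; dose as in the result columns while the protocol names 77 µM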
# * = called active by the depositor; ? = inconclusive; nt = no result given; & = joins results of further samples. These rows are one share of the data (hit frequency here may not be typical).
SMILES,miR-21 reporter,Rango complex inh,Rango release inh,GLA inh pH 4.5
O=C(NCCc1ccccn1)c1cc2ccccc2o1,-58%,7.9%,32%,nt
CCCC1O[C@@H]2CC3C4CCC5=CC(=O)C=C[C@]5(C)C4C(OC(C)=O)C[C@]3(C)[C@]2(C(=O)COC(C)=O)O1 (some centres not stated),-7%,2.8%,-4%,-2
COCCNC(=O)CSc1ccccc1C(=O)O,4%,0.3%,65%,1
Cc1ccc(S(=O)(=O)N2CCN(CC3CC4C=CC3C4)CC2)cc1 (configuration not stated),-3%,-4.4%,-1%,nt
COc1ccc(NC(=O)CSc2ccc([N+](=O)[O-])cc2)cc1S(=O)(=O)N1CCOCC1,nt,-0.6%,-3%,nt
COc1cc(CNCCN(C)C)c(Br)cc1OC1CCCC1,-3%,-0.8%,-6%,9
CC(C)(C)c1cc(C(=O)N/N=C/c2ccc(F)cc2)n(-c2ccccc2)n1,-9%,2.2%,8%,-24
Cc1cc(NC(=O)c2ccc(S(=O)(=O)N3CCc4ccccc43)cc2)no1,9%,2.5%,-20%,5
CC(C)C(C(=O)NC(C)(C)C)N(CCN1CCOCC1)C(=O)CNS(=O)(=O)c1ccccc1 (configuration not stated),12%,-2.0%,1%,nt
COc1ccc(C2C(C#N)=C(N)N(N(C)C)C3=C2C(=O)CC(C)(C)C3)cc1OC (configuration not stated),-5%,-1.9%,-1%,nt
COc1ccc(NC(=O)COC(=O)c2c3c(nc4ccccc24)CCCC3)cc1Cl,24%,-0.5%,-2%,-12
CCn1ncc(Br)c1C(=O)Nc1cccc(F)c1,-11%,-3.9%,23%,-4
COc1ccccc1C(C)NC(=O)c1ccccc1SCC(=O)N1CCCC1 (configuration not stated),nt,3.5%,11%,nt
COc1ccc(/C=C/C(=O)C2C(=O)C=C(C)OC2=O)cc1O (configuration not stated),-63%,?,?,2
O=C(NCC1CCCO1)c1ccc(COc2ccccc2)cc1 (configuration not stated),-3%,-0.9%,-12%,nt
Cc1cc(=O)[nH]c(CN2CCC(c3ccccc3)CC2)n1,1%,-1.1%,-7%,2
COC1=C(Nc2ccc(OC)cc2)C(=O)c2ccccc2C1=O,-30%,1.2%,13%,-14
CC1(C)Oc2ccc3ccc(=O)oc3c2C(N2CCCCC2)C1O (configuration not stated),-6%,?,?,1
CCOC(=O)C(O)(NC(=O)c1cccnc1)C(F)(F)F (configuration not stated),-7%,-0.4%,-4%,-4
Cc1ccc(C(=O)OC(C)C(=O)NC2CCCCC2C)cc1S(=O)(=O)N1CCOCC1 (configuration not stated),0%,2.6%,-3%,nt
CCC(C)(C)NC(=O)c1ccc2c(c1)N(CC(=O)OC)C(=O)C(C)(C)O2,-3%,3.0%,11%,2
CC(=O)N/C(=N/c1nc(C)cc(C)n1)Nc1ccc(C)cc1Cl,1%,-1.0%,-2%,nt
CN1CCCCCC1=Nc1ccccc1C#N,0%,2.3%,0%,-11
O=C(c1ccco1)N1CCN(S(=O)(=O)c2ccc([N+](=O)[O-])cc2)CC1,0%,6.3%,-7%,5
CCC(C(=O)Nc1ncc(C)s1)c1ccccc1 (configuration not stated),2%,2.2%,1%,2
Cc1ccc(Nc2c(-c3ccc(N4CCOCC4)cc3)nc3ncccn23)c(C)c1,-12%&-17%,?,?,-1
Cc1nnc(SCC(=O)Nc2sc3c(c2C(=O)c2ccccc2)CCCC3)s1,-8%,-1.9%,2%,-8
O=[N+]([O-])c1cc(Br)c(O)c(C=Nc2ccc(N3CCOCC3)cc2)c1,-8%,-1.2%,-24%,-5
Cc1cccc(C(=O)NCc2nnc(SCC(=O)NC(C)c3ccccc3)n2C)c1 (configuration not stated),-10%,0.6%,3%,-10
COc1ccccc1OCC(=O)Nc1nnc(-c2ccco2)s1,-17%,?,2%,22

# Complete entries as entered above:
# `CC1(C)Oc2ccc3ccc(=O)oc3c2C(N2CCCCC2)C1O` (configuration not stated) reads miR-21 reporter: -6%; Rango complex inh: ?; Rango release inh: ?; GLA inh pH 4.5: 1
# `Cc1ccc(Nc2c(-c3ccc(N4CCOCC4)cc3)nc3ncccn23)c(C)c1` reads miR-21 reporter: -12%&-17%; Rango complex inh: ?; Rango release inh: ?; GLA inh pH 4.5: -1

# New compounds follow.
SMILES,miR-21 reporter,Rango complex inh,Rango release inh,GLA inh pH 4.5
O=[N+]([O-])c1ccc(N2CCCC2)cc1NC(c1ccccc1)c1ccccc1,-7%,5.7%,-8%,-10
O=C(NC1(C(F)(F)F)Oc2ccccc2O1)N1CCCC1,-35%,-0.4%,22%,2
CC1(C)Cc2c(c(N3CCOCC3)nc3sc4c(NCCN5CCOCC5)nnnc4c23)CS1,-16%,-2.6%,-1%,-1
CN(C)S(=O)(=O)Oc1ccsc1C(=O)Nc1ccccc1Cl,-11%,0.0%,4%,-9
O=C(CN(Cc1ccc(F)cc1)C(=O)c1csnn1)NCc1ccccc1,-3%,-0.7%,-15%,nt
COc1ccc(NC(=O)CC2C(=O)N(C)C(=S)N2CCc2ccc(F)cc2)cc1 (configuration not stated),?,2.1%,22%,-8
Cc1ccc(C(=O)N(Cc2cccs2)C2CCS(=O)(=O)C2)cc1 (configuration not stated),-3%,7.6%,-16%,nt
O=S(=O)(NCCS(=O)(=O)N1CCN(c2ccccc2)CC1)c1ccc(F)cc1,nt,0.9%,4%,nt
CCOC(=O)Nc1ccc(NS(=O)(=O)c2ccc(C)cc2)cc1,8%,?,-1%,4
O=C(Nc1scc(-c2cccs2)c1C(=O)O)c1cccs1,7%,?,7%,3
COc1ccc(-n2c(=O)cc(N3CCc4ccccc43)[nH]c2=O)cc1,-4%,-0.2%,-4%,7
Cc1cc(C(=O)OCC(=O)N2CCc3ccccc32)c(C)o1,-21%,-0.4%,0%,-2
Cc1cc(Cl)ccc1NC(=S)NCc1ccc(F)cc1,1%,-3.3%,2%,nt
CC(=O)N1CCC(C(=O)OCc2ccc(Cl)cc2)(c2ccccc2)CC1,11%,0.3%,-8%,nt
O=C1c2ccccc2C(=O)N1COc1ccc(S(=O)(=O)N2CCOCC2)cc1[N+](=O)[O-],2%,-0.6%,-3%,nt
COc1ccc(Cl)cc1NC(=O)C1CCN(C(=O)C2CC(=O)N(c3ccc(C)cc3)C2)CC1 (configuration not stated),-6%,-2.6%,-13%,nt
O=C(CN1C(=O)NC2(CCc3ccccc32)C1=O)c1cccs1 (configuration not stated),nt,-1.3%,-18%,nt
Cc1ccc2cccc(SCC(=O)Nc3ccc(F)cc3)c2n1,-6%,0.5%,13%,nt
CCCC(=O)Nc1nc(C)c(-c2csc(Nc3cc(OC)ccc3OC)n2)s1,-2%,-1.2%,-15%,5
COc1cccc(NC(=O)CSc2nc3c(c(=O)n2C)SC(C)C3)c1 (configuration not stated),-11%,2.2%,4%,5
CCN(CC(O)COCc1ccc(Cl)cc1)C1CCCCC1 (configuration not stated),-2%,1.1%,-15%,4
Cc1ccc(OCc2ccccc2Br)c([N+](=O)[O-])n1,-15%,-1.4%,-6%,nt
CCc1ccccc1N(C(=O)c1ccco1)C(C(=O)NC1CCCC1)c1cccnc1 (configuration not stated),2%,-0.9%,-8%,nt
COc1ccc(C(=S)N2CCOCC2)cc1OC(=O)c1cc([N+](=O)[O-])c(C)c([N+](=O)[O-])c1,-11%,1.6%,9%,4
CCOC(=O)c1c(C)[nH]c(C(=O)COC(=O)CNC(=O)c2ccc(Cl)cc2)c1C,-12%,0.2%,0%,2
CCOC(=O)N1CCN(Cc2nc3cc(NC(=O)c4cccs4)ccc3n2C)CC1,15%,0.9%,-4%,nt
O=C(CSc1ccc(Cl)cc1)N1N=CCC1c1ccccc1 (configuration not stated),-12%,-2.5%,-6%,-5
COCCCn1c(SCC(=O)Nc2cccc(C(=O)OC)c2)nnc1-c1ccncc1,0%,0.2%,-6%,5
CCOc1ccccc1NC(=O)C(=O)CC(=O)c1cccc(OC)c1,-7%,-1.2%,1%,nt
COc1ccccc1Sc1nc(-c2ccccc2)ncc1OC,13%,-0.1%,-2%,-4
COc1cc(CN2CCN(C(=O)c3cccc4ccccc34)CC2)cc(OC)c1OC,5%,0.8%,2%,nt
Cc1cc(C)c(S(=O)(=O)NCc2ccc3c(c2)OCO3)c(C)c1,0%,5.6%,-15%,nt
C=CCNC(=O)c1csc(-c2ccccc2)n1,-22%,2.2%,1%,-20
Cc1ccc(NC(=O)c2ccc(OC(=O)C(C)Oc3ccc(Cl)cc3C)cc2)cc1 (configuration not stated),-28%,0.4%,-7%,-6
Cc1ccc(Cl)cc1N1CCN(S(=O)(=O)c2cccc(S(=O)(=O)N3CCCC3)c2)CC1,0%,1.9%,-10%,-5
O=S(=O)(c1ccccc1)n1cc(-c2ccccn2)c(N2CCOCC2)n1,1%,-3.7%,3%,4
O=c1n(Cc2ccccc2F)c2ccccc2n1Cc1ccccc1F,-14%,-4.3%,0%,-1
CC(=O)c1ccc(-c2cc([C@H]3[C@H]4C=CC[C@@H](C)[C@@H]4C(=O)N3Cc3ccccc3)ccc2F)cc1,22%,-1.3%,9%,0
CCSC1=C(C#N)C(=O)n2c1cc1c2CCCC1,0%,?,-6%,-3
COc1ccc(CCN2C(=O)CC(C(C)c3ccccc3)C2=O)cc1OC (configuration not stated),-1%,-1.7%,1%,10
COc1cccc(C(=O)Oc2cc(C)[nH]c(=O)c2[N+](=O)[O-])c1,5%,-1.1%,1%,-2
CNC(=O)c1[nH]cnc1C(=O)Nc1cccc(Cl)c1,nt,?,-12%,nt
COCC1CCCN(Cc2cn(-c3ccccc3)nc2-c2ccc3c(c2)OCO3)C1 (configuration not stated),-1%,?,-20%,-14
Clc1ccc(-c2nn3c(-c4cccc(Cl)c4)nnc3s2)cc1,-2%,nt,nt,6
CN(CCc1ccccc1)C(=O)c1cccc(NC(=O)Cc2cccc([N+](=O)[O-])c2)c1,nt,-1.3%,13%,nt
CCCCN1C(=O)C(=O)N(CC(=O)N2CCc3ccccc32)C1=O,nt,?,-15%,nt
COCCNC(=O)/C(C#N)=C1\N=C(N)c2ccccc21,0%,?,-8%,-15
O=C(NNC(=O)C1CC1c1ccccc1)Nc1ccccc1 (configuration not stated),0%,-1.7%,-3%,-4
Cc1ccc(S(=O)(=O)c2cc3c(=O)n4ccccc4nc3n(C)c2=N)cc1C,-1%,?,?,nt
CCN1C(=O)C(Cc2nc3ccccc3c(=O)n2C)c2ccccc21 (configuration not stated),-12%,-2.7%,-11%,-3

# Not a retest: entries from further up.
SMILES,miR-21 reporter,Rango complex inh,Rango release inh,GLA inh pH 4.5
CNC(=O)c1[nH]cnc1C(=O)Nc1cccc(Cl)c1,nt,?,-12%,nt
COCC1CCCN(Cc2cn(-c3ccccc3)nc2-c2ccc3c(c2)OCO3)C1 (configuration not stated),-1%,?,-20%,-14
Clc1ccc(-c2nn3c(-c4cccc(Cl)c4)nnc3s2)cc1,-2%,nt,nt,6
CN(CCc1ccccc1)C(=O)c1cccc(NC(=O)Cc2cccc([N+](=O)[O-])c2)c1,nt,-1.3%,13%,nt
CCCCN1C(=O)C(=O)N(CC(=O)N2CCc3ccccc32)C1=O,nt,?,-15%,nt
COCCNC(=O)/C(C#N)=C1\N=C(N)c2ccccc21,0%,?,-8%,-15
